Screens deposited in PubChem BioAssay by ICCB-Longwood Screening Facility, Harvard Medical School.
HCMV UL50-53 inh: disrupts HCMV UL50-UL53 complex binding; 190,000 tested, 0.15% active; HTRF UL50-UL53 interaction, normalized percent inhibition; inhibition, % (concentration not given with the values);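 active means both replicates at 50% or more, plus weaker picks with an unusually low signal ratio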;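 further: stock transfer was 100 nL into about 20 µL; 0% = negative control wells and 100% = wells with untagged competitor protein; inactives centre near -12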
Sa growth inh: inhibitors of Staphylococcus aureus growth at 42 °C. relative growth, % (no concentration beside the values). S. aureus RN4220 growth, OD600, 20 h; hits give low values. 170,000 tested, 0.53% active;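 active means growth at 42 °C up to 50% and 20 or more points under that at 30 °C, or under 10% at both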;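 further: 300 nL library stock went into each well; scaled to the means of positive and negative controls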
GIV-Gai inh: inhibitors of GIV GBA-motif binding to rat Galpha-i3; AID 1224905; 210,000 tested, 0.42% active; percent of control (FP), % (no concentration beside the values); Galpha-i3/FITC-GIV peptide fluorescence polarization, 90 min; hits give low values; scaled: aluminum fluoride 0%, vehicle 100%; P08753;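 active means replicate mean at 85% of control or lower, very high polarization wells dropped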;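 further: wells of about 15 µL received 100 nL stock; the first replicate is given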
Target sequence (P08753 whole entry, looked up): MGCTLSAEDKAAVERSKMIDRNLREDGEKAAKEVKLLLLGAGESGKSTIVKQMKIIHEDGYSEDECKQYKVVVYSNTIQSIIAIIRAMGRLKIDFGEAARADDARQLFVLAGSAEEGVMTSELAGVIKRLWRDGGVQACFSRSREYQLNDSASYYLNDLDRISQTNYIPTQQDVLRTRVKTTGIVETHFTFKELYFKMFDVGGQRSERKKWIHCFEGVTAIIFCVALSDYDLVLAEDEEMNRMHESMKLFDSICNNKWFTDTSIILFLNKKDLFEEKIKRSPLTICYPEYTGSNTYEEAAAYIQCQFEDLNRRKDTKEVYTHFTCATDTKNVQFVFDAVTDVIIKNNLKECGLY
Sa growth inh second temp: second read-out of Sa growth inh, no call of its own (marks repeat the call); relative growth, %; measured here: growth at 30 °C;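 optical density after 20 h as mean of two plates; 100% = untreated growth and lower means inhibition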
Starred values were filed as active, the others as inactive; nt = no result given; & = joins results of further samples.

Each structure is followed by: GIV-Gai inh	Sa growth inh	Sa growth inh second temp	HCMV UL50-53 inh
CN(Cc1ccccc1)C(=O)Cn1cc(Br)ccc1=O
    nt	110	96	9
O=C(NCc1ccccc1)C1CCN(c2ncnc3c2nc2n3CCCCC2)CC1
    104	139	95	nt
COc1ccc(CC(=O)N2CCc3ccccc32)cc1
    nt	106	86	-6
CC1=C(C(=O)Nc2ccc(C)cc2)C2(CCCCCC2)OC1=O
    104	97	82	-27
CCn1c(C(C)C)n[nH]c1=S
    107	120	100	-8
COc1ccc(C(=O)COC(=O)Cn2c(C)csc2=O)c(OC)c1
    nt	110	80	-40
COc1ccc(S(=O)(=O)N(CCC#N)Cc2ccccc2)cc1OC
    100	96	77	-10
CCc1ccc(-c2nc(SCC(=O)NCCOC)c(-c3ccc(C)cc3)[nH]2)cc1
    98	114	92	-10
O=C(OCc1ccccc1Cl)c1ccco1
    nt	88	100	12
CCc1ccc(C2C(C(=O)c3ccco3)=C(O)C(=O)N2CC2CCCO2)cc1 (stereo not given)
    nt	84	91	-19
CCOc1ccc(Nc2nc(C3(C)CC4(CC(C)(C)OC4=O)C(=O)O3)cs2)cc1 (stereo not given)
    98	92	89	nt
CCc1ccc(NC(=O)Nc2cc(C)c3nc(NC(C)=O)sc3c2)cc1
    101	nt	nt	24
Cc1ccc(-n2c3c(cc(C(=O)Nc4ccccc4C(N)=O)c2=O)C(=O)CC(C)(C)C3)cc1
    104	113	86	-27
Cc1cc2n(n1)CCCN2CC(=O)NCCc1ccc(S(N)(=O)=O)cc1
    103	103	98	-13
S=C(NCCN1CCOCC1)NCc1ccco1
    98	94	90	-13
CCCC(=O)N(c1ccc2oc(-c3ccccc3)c(C(=O)OCC)c2c1)S(=O)(=O)c1ccc(C)cc1
    102	102	103	24
O=C(CCc1nc2sc3c(c2c(=O)[nH]1)CCCCC3)N1CCN(c2ccccn2)CC1
    97	nt	nt	-26
O=C(Nc1ccc(NC(=O)c2ccccc2O)cc1)c1ccccc1
    100	98	86	-6
O=C(CNCCC1=CCCCC1)Nc1ccccc1N1CCCCC1
    104	101	78	-28
NC(=O)CSc1ccc2nnc(-c3ccc(Cl)cc3)n2n1
    105	87	82	-43
Cc1ccc(-c2c(N3CCN(C)CC3)c(=O)c2=O)cc1
    104	nt	nt	-62
O=C1COc2cc(S(=O)(=O)N3CCCC3C(=O)N3CCc4ccccc4C3)c(Cl)cc2N1 (stereo not given)
    105	nt	nt	22
CC1=C(C(=O)Nc2ccc(Cl)cc2C(=O)NC2CCCC2)SCCO1
    97	87	81	nt
CC(=O)Nc1c(C(=O)Nc2ccc(C)c(Cl)c2)nnn1-c1ccc(C)cc1
    98	nt	nt	2
Nc1nnc(SCC(=O)Nc2nnc(C(F)(F)F)s2)s1
    104	97	82	nt
O=C(NC(=O)c1cccc(F)c1)Nc1nc(-c2ccccc2)cc(C(F)(F)F)n1
    nt	101	87	-5
O=S1(=O)CCC(S(=O)(=O)N2CCOCC2)C1 (stereo not given)
    nt	115	80	-4
COc1ccc(CC(=O)OCc2nc3ccc(Cl)cc3n2CCO)cc1OC
    nt	114	96	-9
Fc1ccccc1-c1ccc(SCc2nc(-c3ccc(Br)cc3)no2)nn1
    104	nt	nt	-10
CCCNC(=O)c1noc2c1CCc1ccccc1-2
    103	99	83	nt
CN(C)C(=O)COC(=O)c1ccccc1Nc1ccc(SC(F)F)cc1
    nt	104	89	-14
Cc1ccc(OCCN2C(=O)OC(C)(C)C2(C)O)cc1 (stereo not given)
    104	89	86	-24
Cc1ccc(OCC(O)Cn2c(=N)n(CCN3CCCCC3)c3ccccc32)cc1 (stereo not given)
    104	139	74	-10
Cc1cc(C)n(C(=O)c2ccc(S(=O)(=O)N3CCCCCC3)cc2)n1
    100	106	98	-2
N#Cc1ccc(OCC(=O)Nc2cccnc2Cl)cc1
    nt	108	79	-40
COc1ccc(NC(=O)C(C)N(c2ccccc2)S(C)(=O)=O)cc1 (stereo not given)
    100	103	88	-12
Cc1oc2ccc(O)c(CN3CCC(C)CC3)c2c1C(=O)Nc1cccc(C(F)(F)F)c1
    108	98	77	10
Cc1cc(C)n2nc(-c3ccccc3)c(Br)c2n1
    100	97	87	0
CN(C)C(=O)N1c2ccccc2Sc2ccccc21
    nt	92	49	-15
O=C(CCn1cnc2ccccc2c1=O)Nc1ccc2c(c1)OCO2
    100	nt	nt	-23
COc1ccc(NC(=O)CN2C(=O)CSc3ccc(S(=O)(=O)N(C)C)cc32)cc1OC
    95	121	89	nt
O=C(NCc1ccccc1Cl)c1ccc2nc(N3CCOCC3)sc2c1
    104	90	92	nt
c1ccc2c(c1)nnn2CNc1nonc1-c1ncon1
    nt	63	90	8
O=C(c1ccccc1)c1cccn1CC(=O)N1CCC(Cc2ccccc2)CC1
    100	nt	nt	3
CCOC(=O)C1=C(C)N=C2c3ccccc3C(=O)C2C1c1ccccc1 (stereo not given)
    98	91	89	-17

Some of the entries above in a different format:
smiles: Cc1oc2ccc(O)c(CN3CCC(C)CC3)c2c1C(=O)Nc1cccc(C(F)(F)F)c1
  GIV-Gai inh: 108; Sa growth inh: 98; Sa growth inh second temp: 77; HCMV UL50-53 inh: 10

smiles: Cc1cc(C)n2nc(-c3ccccc3)c(Br)c2n1
  GIV-Gai inh: 100; Sa growth inh: 97; Sa growth inh second temp: 87; HCMV UL50-53 inh: 0

smiles: CN(C)C(=O)N1c2ccccc2Sc2ccccc21
  GIV-Gai inh: nt; Sa growth inh: 92; Sa growth inh second temp: 49; HCMV UL50-53 inh: -15

smiles: O=C(CCn1cnc2ccccc2c1=O)Nc1ccc2c(c1)OCO2
  GIV-Gai inh: 100; Sa growth inh: nt; Sa growth inh second temp: nt; HCMV UL50-53 inh: -23

(next part)
Each structure is followed by: GIV-Gai inh	Sa growth inh	Sa growth inh second temp	HCMV UL50-53 inh
Cc1nn(-c2ccccc2)nc1C(=O)Oc1ccc(Cl)cc1
    102	100	89	nt
Cc1nnc(SC(C(N)=O)C(N)=O)s1
    nt	86	93	-14
CCOc1ccccc1NC(=O)CCc1c(C)nn(-c2ccc(N3CCCCC3)nn2)c1C
    103	84	91	nt
COc1ccc(C2C(C(=O)Nc3ccccn3)c3ccccc3C(=O)N2C)cc1 (stereo not given)
    104	112	88	4
CCN1CCN(c2nc3ncn(CC(=O)Nc4ccc(Br)cc4F)c(=O)c3s2)CC1
    101	nt	nt	-28
Cc1cccc(C)c1NC1=NC2CS(=O)(=O)CC2S1 (stereo not given)
    103&108	117	89	-2
O=C(O)COCc1ccc(Br)cc1
    108	108	90	-151
CC(=O)Nc1ccc(S(=O)(=O)c2cc(O)ccc2O)cc1
    107	95	91	-31
CCc1nnc2c(N3CCN(c4cccc(C(F)(F)F)c4)CC3)nc3ccccc3n12
    109	104	99	nt
O=c1[nH]c2ccc(S(=O)(=O)NC3CC3)cc2[nH]1
    96	91	85	nt
CC(CN1CCOCC1)OC(=O)c1ccc2c(c1)OCCO2 (stereo not given)
    nt	105	87	-12
O=S(=O)(c1ccccc1)N(Cc1ccccc1)Cc1ccccc1
    100	113	79	nt
CC(C)NC(=O)c1c2c(nc3ccccc13)CCCC2
    nt	100	84	-22
COc1ccc(NC(=O)c2cnc3scc(C)n3c2=O)c(OC)c1
    100	113	95	6
Cc1ccc(C)c(S(=O)(=O)CCC(=O)O)c1
    100	84	95	-24

Entries from the list above that have an aryl thioether with sulfur outside any ring:
Each structure is followed by: GIV-Gai inh	Sa growth inh	Sa growth inh second temp	HCMV UL50-53 inh
CCc1ccc(-c2nc(SCC(=O)NCCOC)c(-c3ccc(C)cc3)[nH]2)cc1
    98	114	92	-10
NC(=O)CSc1ccc2nnc(-c3ccc(Cl)cc3)n2n1
    105	87	82	-43
Nc1nnc(SCC(=O)Nc2nnc(C(F)(F)F)s2)s1
    104	97	82	nt
Fc1ccccc1-c1ccc(SCc2nc(-c3ccc(Br)cc3)no2)nn1
    104	nt	nt	-10
CN(C)C(=O)COC(=O)c1ccccc1Nc1ccc(SC(F)F)cc1
    nt	104	89	-14
Cc1nnc(SC(C(N)=O)C(N)=O)s1
    nt	86	93	-14

The results go on.
Each structure is followed by: GIV-Gai inh	Sa growth inh	Sa growth inh second temp	HCMV UL50-53 inh
CCOC(=O)c1cc(OC(=O)c2ccc(Cl)cc2)n(-c2ccccc2)n1
    102	85	81	-17
CCCN(C(=O)COc1cc(=O)n(C)c2ccccc12)c1ccc(OCC)cc1
    104	nt	nt	-23
Cc1ccc(C)c(CSc2nnc(C)n3c2cc2occc23)c1
    104	112	104	-66
CCOC(=O)c1ccc(-c2ccc(/C=C3\C(=O)N(c4ccc(S(N)(=O)=O)cc4)N=C3C)o2)cc1
    103	nt	nt	-4
COc1ccc(CCNc2nc3c(c(C(F)(F)F)n2)CCCCC3)cc1OC
    94	81	66	-12
CC(C)n1nnc2cc(S(=O)(=O)N(C)CC(=O)N3CCN(c4ccccc4)CC3)ccc21
    111	nt	nt	-14
CCCCC1CCC(C(=O)NCCc2csc(-c3ccccc3)n2)CC1 (stereo not given)
    100	nt	nt	7
O=C(CN1C(=O)C2CCCCN2c2ccc(C(=O)N3CCCCC3)cc21)Nc1ccc2c(c1)OCCO2 (stereo not given)
    109	nt	nt	1
O=C(CSc1ccc(C(=O)O)cn1)Nc1ccc(OC(F)(F)F)cc1
    98	101	86	-6
Cc1cc2ncc(S(=O)(=O)C(C)(C)C)c(N)n2n1
    108	96	93	-22
Cc1ccc(N=Cc2c(CSc3ccc(C)cc3)[nH]n(-c3nc4ccccc4s3)c2=O)cc1
    109	nt	nt	-15
CCc1nc(-c2cc(S(=O)(=O)N3CCC(C(=O)Nc4cccc(OC)c4)CC3)c(C)s2)no1
    104	nt	nt	-7
C=CCOc1ccc(/C=C2/SC(=Nc3ccccc3)NC2=O)cc1OCC
    111	nt	nt	-19
Cc1c(C(=O)N(Cc2ccccc2)Cc2cccnc2)cnn1-c1ccc(F)cc1
    98	99	81	-12
Cc1c2c(=O)n(-c3nc4ccccc4s3)nc-2cc(O)n1CCN1CCOCC1
    98	nt	nt	-85
CC(C)(C)c1ccc(NC(=O)c2ccco2)c(N)c1
    102	107	90	1
O=c1n(Cc2ccc(Cl)cc2)nc2n1-c1ccccc1OC2
    105	90	92	6
O=C(c1cccc(S(=O)(=O)Nc2cccc(Cl)c2)c1)N1CCCCC1
    nt	86	92	-20
CCOC(=O)c1ccc(NC(=O)c2sc(NC(=O)c3ccccc3F)c(C(=O)OCC)c2C)cc1
    119	nt	nt	5
CCN1CCOC2(O)C=CC(=O)C=C12 (stereo not given)
    93	70	46	-8
COc1ccc(N2C(=O)c3cc(C)nn3CC2(C)C(=O)NCc2ccccc2)c(OC)c1 (stereo not given)
    97	nt	nt	-13
Cc1ccc(-c2cc(N3CCC(C(N)=O)CC3)nc(SCC(C)C)n2)cc1
    109	nt	nt	-9
CS(=O)(=O)Nc1cc(C(=O)O)ccc1N1CCC(N2CCCCC2)CC1
    102	nt	nt	-34
Cc1ccc(C)c(N2CCN(C(=O)C(CC(C)C)NS(=O)(=O)c3ccc4nc(C)sc4c3)CC2)c1 (stereo not given)
    102	89	91	5
COc1ccccc1N1C(=O)CSC1=NC(=O)c1ccccc1
    nt	103	94	-6
CCc1ccc(CN2CCN(Cc3ccc4c(c3)OCO4)CC2)cc1
    98	114	82	nt
COC(=O)C1=C(NNc2ccccc2)CSC1
    101	85	77	-29
Cc1ccc(C(=O)N2CCN(c3ccccc3F)CC2)cc1NC(=O)c1nsc2ccccc12
    103	105	90	nt
Cc1cc(NC(=O)CSc2ncccn2)no1
    106	98	74	7
Cc1cc(C)cc(-n2ccnc(NCc3ccc4c(c3)OCO4)c2=O)c1
    106	101	95	-62
CC1=C(C(=O)Nc2ccc(C)cc2C)C(c2ccc(O)cc2)n2nc(SCC(=O)c3ccc(C)cc3)nc2N1 (stereo not given)
    102	103	77	nt
